Mtb MbtI inh: MbtI salicylate synthase inhibitors, primary screen, biochemical, fluorescence intensity; P9WFX0; purified MbtI enzyme, fluorescence intensity read-out; inhibition, %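 (about 17 µg/mL by stock and volumes)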; 100,000 compounds, 0.89% hits; AID 493033, 2011;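 active means above 50% in both replicates, above 80% if mildly self-fluorescent; inactive means the rest, strongly fluorescent compounds included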;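 further: 0% = mean of negative and 100% = mean of positive controls; one replicate is shown; some compounds called inactive have numbers as strong as hits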
Target sequence (P9WFX0 whole entry, looked up): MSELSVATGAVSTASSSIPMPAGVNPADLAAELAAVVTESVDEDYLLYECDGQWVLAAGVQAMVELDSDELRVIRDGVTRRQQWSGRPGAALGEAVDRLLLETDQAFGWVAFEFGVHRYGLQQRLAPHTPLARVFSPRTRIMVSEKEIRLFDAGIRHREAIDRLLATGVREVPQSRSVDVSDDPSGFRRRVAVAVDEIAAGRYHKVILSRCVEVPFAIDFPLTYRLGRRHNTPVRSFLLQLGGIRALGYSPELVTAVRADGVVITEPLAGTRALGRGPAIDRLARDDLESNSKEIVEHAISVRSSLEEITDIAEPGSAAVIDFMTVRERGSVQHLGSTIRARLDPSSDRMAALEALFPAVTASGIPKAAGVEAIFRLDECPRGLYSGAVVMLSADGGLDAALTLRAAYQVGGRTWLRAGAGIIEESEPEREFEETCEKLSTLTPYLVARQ
Polio RdRp inh: poliovirus RdRp elongation inhibitors, primary screen, biochemical, fluorescence polarization, total intensity; 150,000 compounds, 0.66% hits; poliovirus polymerase elongation; hits give low values; % elongation, % (compound at 16.7 µg/mL); AID 588519, 2011; Genome polyprotein (Poliovirus type 1 (strain Mahoney)), P03300; in the data active means % elongation below about 90%; further: some results filed as inactive read as strong as hits
Mtb MenB inh: M. tuberculosis MenB inhibitors, primary screen, biochemical, absorbance; 1,4-dihydroxy-2-naphthoyl-CoA synthase (Mycobacterium tuberculosis (strain ATCC 25618 / …; MenB enzyme assay, absorbance read-out; some hits fall short of the stated cut; inhibition, %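 (about 12 µg/mL by stock and volumes)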; 100,000 compounds, 0.43% hits; AID 540299, 2011;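 active means mean of two replicates above 30%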;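 further: 0% = no compound and 100% = wells with inactive enzyme; the first replicate is given; strong numbers were not always called active; inactives centre near -10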
Target sequence (P9WNP5 whole entry, looked up): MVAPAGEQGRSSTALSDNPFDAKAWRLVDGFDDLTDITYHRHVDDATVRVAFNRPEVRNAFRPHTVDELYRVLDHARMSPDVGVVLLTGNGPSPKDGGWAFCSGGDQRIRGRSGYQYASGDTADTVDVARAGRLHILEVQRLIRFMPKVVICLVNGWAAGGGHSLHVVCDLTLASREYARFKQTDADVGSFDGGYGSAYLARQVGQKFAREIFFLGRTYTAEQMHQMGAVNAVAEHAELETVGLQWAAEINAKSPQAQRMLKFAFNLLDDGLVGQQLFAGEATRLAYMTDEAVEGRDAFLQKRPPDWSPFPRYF
Polio RdRp inh intensity: further read-out of Polio RdRp inh, marked with its call; % elongation; measured here: total intensity read-out; formula for this scale not given here;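 total fluorescence in place of polarization; lower means less elongation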
An asterisk follows results filed as active; . = no result given.

A first look, 2 compounds:
Below each compound – Mtb MbtI inh, Polio RdRp inh, Polio RdRp inh intensity, Mtb MenB inh
O=C(OCC(=O)N1CCCC1)c1c(Cl)cccc1Cl
→ -1, 102, 107, .
C=CCNC(=O)c1c(O)c2cccc3c2n(c1=O)CCC3
→ -34, 101, 100, -12

The whole of this part, previewed entries included:
Below each compound – Mtb MbtI inh, Polio RdRp inh, Polio RdRp inh intensity, Mtb MenB inh
O=C(OCC(=O)N1CCCC1)c1c(Cl)cccc1Cl
→ -1, 102, 107, .
C=CCNC(=O)c1c(O)c2cccc3c2n(c1=O)CCC3
→ -34, 101, 100, -12
Cc1ccc(Cn2nc(C)ccc2=O)cc1
→ 2, 105, 108, 1
CCOC(=O)c1c(CC(C)C)csc1NC(=O)C#Cc1ccccc1
→ -3, 100, 106, .
CCC(C)N(C)C1CCN(C(=S)Nc2cccc(Cl)c2)CC1 (stereo unspecified)
→ -8, 100, 100, -5
COc1ccc(-n2nnnc2SCC(=O)N2CC(=O)Nc3ccccc32)cc1
→ -1, 104, 108, -24
CC1Cc2ccccc2N1C(=O)C1CCN(S(=O)(=O)Cc2ccccc2)CC1 (stereo unspecified)
→ -1, 100, 101, -14
CC(=O)OC1OCCOC1NC(=S)Nc1ccc(C)cc1 (stereo unspecified)
→ 6, 102, 101, -3
COc1ccc(S(=O)(=O)N(C)CC(N)=O)cc1
→ 6, 96, 103, -19
COc1ccc(-n2cc(C(=O)Nc3cc(C)ccc3OC)nn2)cc1
→ 2, 99, 98, 18
COc1ccc(CNC(=O)c2cc(S(=O)(=O)N3CCCC3)c[nH]2)cc1
→ -9, 104, 104, -17
COc1ccc2oc(=O)c(C(=O)N(C)C)cc2c1
→ ., 105, 99, 3
CCCN1CCN(C(=O)C(NC(=O)c2ccco2)C(C)C)CC1 (stereo unspecified)
→ 12, 99, 107, -6
CCCc1c(C(=O)OCC)[nH]c2c1C(=O)CCC2
→ 0, 100, 103, 5
Cc1cc(C(=O)COC(=O)CCN2C(=O)C3CC=CCC3C2=O)c(C)n1C (stereo unspecified)
→ -2, 103, 106, -24
CS(=O)(=NC(=O)NC(=O)c1ccc(Cl)cc1)c1ccc(C(F)(F)F)cn1 (stereo unspecified)
→ -5, 110, 105, -22
CC(CCc1ccccc1)NC(=O)Cc1noc2ccccc12 (stereo unspecified)
→ 2, 102, 104, -2
O=C(OCc1csc(Nc2ccccc2)n1)c1cccc(S(=O)(=O)N2CCOCC2)c1
→ 2, 104, 103, -31
O=C(CSc1nnnn1C1CCCC1)c1ccc2c(c1)OCCO2
→ 5, 102, 99, -32
O=C(COc1ccccc1Br)Nc1ccc(C(=O)OC2CCCCC2)cc1
→ ., 107, 112, -16
Cc1noc(C)c1-c1nnc(-c2ccc(OC(F)(F)F)cc2)o1
→ -12, 102, 103, -13
CCN(CC)C(=O)Cn1cc(SCC(=O)N(C(C)C)C(C)C)c2ccccc21
→ 4, 103, 105, -14
Cc1ccc(S(=O)(=O)/N=C(\N)Nc2nc3ccccc3s2)cc1
→ 8, 104, 105, 11
O=C(O)CCC(=O)c1ccco1
→ -4, 103, 99, -83
Cc1cc(C)nc(SCC(=O)N2CCCC2c2cccs2)n1 (stereo unspecified)
→ 0, 101, 94, -1
c1cc2nncn2nc1N1CCOCC1
→ 1, 102, 103, 7
CN(CCOc1ccc(F)cc1)Cc1ccccc1
→ -11, 106, 108, 7
C[C@@H](C(=O)Nc1nc2ccccc2[nH]1)N1C(=O)C2CC=CCC2C1=O (stereo partly specified)
→ -16, 105, 110, -22
O=C(CCc1nc2cccnc2n1-c1ccccc1)NCC1CCCO1 (stereo unspecified)
→ -8, 103, 102, -7
CCC(C)c1ccc(OCC(=O)Nc2cccc(-c3nc4ncccc4o3)c2C)cc1 (stereo unspecified)
→ 89, 103, 108, -24
CC(C)CN(CC(C)C)c1nnc(NC(=O)Nc2ccccc2)s1
→ -20, 103, 104, 10
Cn1cnnc1SCNC(=O)c1cc2ccccc2o1
→ -7, 99, 102, -16
Cc1csc(NC(=O)C(Cc2ccccc2)NS(=O)(=O)c2ccc(Br)s2)n1 (stereo unspecified)
→ 0, 100, 104, 3
CCOC(=O)/C(C#N)=C1/C=C(C)c2ccccc2N1
→ -11, 100, 98, .
COC(=O)CSc1n[nH]c(CNc2cccc(C)c2)n1
→ -7, 101, 103, -4
Cn1cc(C=C(C#N)C#N)c2ccccc21
→ -7, 92, 121, -76
O=C(O)CCN1C(=O)C2C3c4ccccc4C(c4ccccc43)C2C1=O (stereo unspecified)
→ ., 103, 91, -29
O=C(c1ccc(Cl)cc1Cl)N1CCCC1
→ -11, 98, 104, 29
COc1cc(NC(=O)c2ccc3c(SCC(=O)O)c4c(nc3c2)CCC4)cc(OC)c1OC
→ -6, 102, 108, -5
COc1ccc(N2CCN(C(=O)c3cn(C)c(=O)c4c3c3ccccc3n4C)CC2)cc1
→ -7, 103, 104, -16
Cc1cccn2c(=O)c3cc(C(=O)NC(C)c4ccccc4)sc3nc12 (stereo unspecified)
→ -24, 98, 102, -21
Cc1ccc(C(=O)N2CC(C)CC(C)C2)cc1 (stereo unspecified)
→ ., 104, 104, -23
CCOC(=O)CN1N=NC2C(=O)N(c3ccccc3)C(=O)C21 (stereo unspecified)
→ -5, 100, 101, 22
Cc1ccc(-n2c(SCC(=O)Nc3c(C)cccc3C)nc3ccccc3c2=O)cc1
→ ., 102, 98, -18
c1ccc(-c2nc(-c3cccnc3)n[nH]2)cc1
→ -16, 97, 97, 14

In a second layout: entries from further up
| SMILES | Mtb MbtI inh | Polio RdRp inh | Polio RdRp inh intensity | Mtb MenB inh |
| --- | --- | --- | --- | --- |
| CCOC(=O)/C(C#N)=C1/C=C(C)c2ccccc2N1 | -11 | 100 | 98 | . |
| Cn1cc(C=C(C#N)C#N)c2ccccc21 | -7 | 92 | 121 | -76 |

Additional results.
Below each compound – Mtb MbtI inh, Polio RdRp inh, Polio RdRp inh intensity, Mtb MenB inh
CCN=C(Nc1cc(-c2ccccc2OC)[nH]n1)SC
→ -3, 103, 103, -9
O=C(COC(=O)c1ccc(Cl)nc1)NC1CCCCC1
→ -8, 101, 106, .
Cc1cc(C)c2c(=O)c3ccccc3[nH]c2n1
→ 86, 99, 107, 0
CC1CCCCN1S(=O)(=O)c1ccc(NC(=O)C2COc3ccccc3O2)cc1 (stereo unspecified)
→ 12, 103, 104, -42
CCCC(NC1CCS(=O)(=O)C1)C(=O)O (stereo unspecified)
→ -9, 102, 108, -6
CC(/C=C/c1ccc2c(c1)OCO2)=N\NC(=O)c1ccccn1
→ -10, 99, 100, -37
O=C(CNC(=O)c1ccccc1)ON1C(=O)CCC1=O
→ 12, 103, 98, -15
O=S(=O)(Nc1ccccc1N1CCOCC1)c1ccc(Cl)s1
→ -5, 104, 106, 5
COc1ccc(CCNC(=O)CSc2nc(C)cc(C)n2)cc1OC
→ -12, 103, 108, -12
S=C(NNc1nc(N2CCCCC2)nc(N2CCCCC2)n1)NC1CCCCC1
→ -16, 101, 103, -36
O=C(Nc1ccccc1)C(O)C(O)C(=O)Nc1ccccc1 (stereo unspecified)
→ ., 101, 105, -13
O=C(c1ccc(CS(=O)c2ccccc2)o1)N1CCN(c2ccccc2)CC1 (stereo unspecified)
→ 8, 100, 97, -2
Cc1ccc(C(=O)CSc2nnc(CSc3nc(C)cc(C)n3)n2C)cc1
→ -11, 103, 102, 7
Cn1ccnc1C(O)c1ccco1 (stereo unspecified)
→ -4, 100, 103, .
Nc1nc(-c2ccccc2)c(CC(=O)O)s1
→ 2, 102, 99, -42

Arranged by length of the SMILES (ascending): some entries from above.
Below each compound – Mtb MbtI inh, Polio RdRp inh, Polio RdRp inh intensity, Mtb MenB inh
CCCC(NC1CCS(=O)(=O)C1)C(=O)O (stereo unspecified)
→ -9, 102, 108, -6
O=C(COC(=O)c1ccc(Cl)nc1)NC1CCCCC1
→ -8, 101, 106, .
Cc1ccc(C(=O)CSc2nnc(CSc3nc(C)cc(C)n3)n2C)cc1
→ -11, 103, 102, 7

(cont.)
Below each compound – Mtb MbtI inh, Polio RdRp inh, Polio RdRp inh intensity, Mtb MenB inh
COc1ccc(OCc2nc3ccccc3n2C(C)C)cc1
→ -10, 102, 104, -23
CS(=O)(=O)NCc1ccc(C(=O)NCc2ccccc2)cc1
→ ., 106, 102, -10
COc1ccccc1CC(=O)N1CCCC1
→ -12, 100, 103, -18
N/C(=N/c1nc(-c2ccccc2)cc(=O)[nH]1)Nc1ccccc1
→ -12, 102, 105, -5
COc1ccc(OC)c(Nc2nc3nonc3nc2N2CCC(C)CC2)c1
→ -11, 100, 107, -9
CS(=O)(=O)c1ccc(NC(=O)CCCc2nc3ccccc3c(=O)[nH]2)cc1
→ 7, 103, 108, 10
CCOc1ccc(NC2=NC(C)CS2)cc1 (stereo unspecified)
→ -7, 100, 102, .
Cc1cc(-c2ccc(C(C)C)c(S(=O)(=O)NC3CCCC3)c2)on1
→ -6, 102, 103, -15
OCCCc1n[nH]c(=S)n1-c1ccccc1
→ -8, 102, 100, 1
CCn1ncc(NC(=S)Nc2ccc3c(c2)OCO3)c1C(N)=O
→ 10, 100, 102, -18
N#C/C(C(=O)c1c[nH]c2ccccc12)=C1\SCC(=O)N1c1ccccc1
→ 3, ., ., -11
O=C(c1ccc(Cl)c(Cl)c1)C12CN3CN(CN(C3)C1)C2
→ 6, 100, 104, -7
COc1cccc(Cl)c1NC(=O)N1CCN(c2ccnc3cc(Cl)ccc23)CC1
→ -7, 101, 101, -28
CN(C)/N=C/c1cc(Br)c(O)c(Br)c1
→ 26, 100, 99, 4
CCCCNC(=O)Nc1ccc(OC)c(OC)c1
→ -5, 104, 111, -7
COc1ccccc1NC(=O)C(NC(=O)c1ccccc1NC(=O)c1ccccc1)C(C)C (stereo unspecified)
→ 19, 101, 98, -34
O=S(=O)(/N=C(\Oc1ccccc1)c1ccccc1)c1ccc(Br)cc1
→ -6, 100, 96, -24
CC1(C)Cc2ccccc2C(c2sc3nc(-c4cccs4)cc(C(F)(F)F)c3c2N)=N1
→ ., 110, 114, -19
CN(C)c1nc(Cl)nc(NCCOc2ccccc2)n1
→ 9, 101, 103, 27
CCOC(=O)c1c(C)oc2c1c(/C=N/N1CCOCC1)c(O)c1ccccc12
→ -6, 58, 136, -9
CC1CCc2cc(F)ccc2N1C(=O)c1ccc2nccnc2c1 (stereo unspecified)
→ 12, 100, 102, 4
CN(C1CCCCC1)S(=O)(=O)c1ccc2c(c1)c(=O)c(C(=O)N1CCCCC1)cn2C
→ -2, 100, 103, 5
O=C(CSc1nc2ccc(N=Cc3cc(Br)ccc3O)cc2s1)Nc1ccccc1
→ ., 46, 259, -13
COc1ccc(CNC(=S)Nc2ccccc2)cc1
→ -13, 104, 104, -36
CCN(CC)P(=S)(c1ccc(/C=N/NC(N)=O)s1)N(CC)CC
→ 2, 107, 112, -17
Cc1ccc(OCC(=O)N(c2ccccn2)C2CCCCC2)c(C)c1
→ -3, 99, 105, -9
SCc1nc2c3ccccc3ncn2n1
→ 98, 82, 119, 14
CC(c1ccccc1)N1CCNCC1 (stereo unspecified)
→ 0, 102, 103, -12
O=S(=O)(NCc1cccnc1)c1ccc2[nH]c3c(c2c1)CCCC3
→ -33, 103, 102, -19
CC(C)NC(=O)c1cc(-c2ccco2)nn1-c1ccc(Cl)cc1
→ 25, 103, 97, -49
CCNC(=S)N/N=C/c1ccccc1OC(C)C
→ -6, 103, 109, -42
COCc1nn2cc(-c3ccc(C)cc3C)nc2s1
→ -4, 103, 100, -2
CC(Nc1ccc(Cl)cc1)C(=O)N/N=C/c1ccc2c(c1)OCO2 (stereo unspecified)
→ -10, 101, 102, -22
O=C(O)CCCCCN1CCN(c2ccccc2)CC1
→ 4, 97, 98, 15
COc1cc([C@@H]2c3cc4c(cc3[C@@H](O[C@@H]3O[C@@H]5CO[C@@H](C)O[C@H]5[C@H](O)[C@H]3O)C3COC(=O)[C@@H]32)OCO4)cc(OC)c1O (stereo partly specified)
→ -5, 103, 101, 2
O=C(NCc1ccccc1)NC1CCS(=O)(=O)C1 (stereo unspecified)
→ 1, 105, 99, 7
O=C1CC(c2cccc(Br)c2)Nc2ccc3ccccc3c21 (stereo unspecified)
→ 0, 101, 105, -1
CCOC(=O)N1CCC2(CC1)OC(=O)C(C)=C2C(=O)N1CCCC1
→ -7, 101, 102, 15
C=C1C(C(=O)N2CCCC2)C1C(=O)N1CCCC1 (stereo unspecified)
→ -12, 103, 98, .
Cc1cc2nc(CSc3ccccc3)cc(=O)n2o1
→ 4, 98, 103, 6
COc1ccccc1OCC(=O)Nc1ccccc1C(=O)NCc1cccnc1
→ -1, 105, 102, -28

Screening results deposited in PubChem by ICCB-Longwood Screening Facility, Harvard Medical School.
